HTT promoter inh: HTT promoter inhibition; HEK293 HTT promoter firefly luciferase reporter (activity 0% = vehicle and -100% = no light), 24 h; Potency, µM (series often up to 57.5 µM), inactives show top-dose activity change, negative = inhibition, actives largely listed as inhibitors; AID 1508623; 48,000 compounds, 0.93% hits; active = well fitted inhibition curve with a large enough effect; inconclusive = small, poorly fitted or top-dose-only effect; inactive = no such curve, though single readings can be large or run the other way; also: nearly all actives have a fitted effect of over 50% in size
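HEK293 cells carrying firefly luciferase reporters were seeded at 2,500 per well in Opti-MEM and cultured for 24 h. They were then treated with compounds at up to 57.5 uM final for 24 h at 37 degrees C before Dual-Glo luminescence readout.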
PMP22 txn: modulates PMP22 transcription in S16 Schwann cells; S16 Pmp22-F2sN Schwann cells (luciferase reporters placed in the Pmp22 gene), FLuc/NLuc coincidence luminescence, 24 h; AID 1508649; 43,000 compounds, 2% hits; Potency, µM (highest dose often 57.5 µM), for the others: at the top dose activity change, negative = inhibition, actives largely listed as inhibitors; active = clear falling dose curves in both reporters; inconclusive = both reporters move, but less clearly or upward; inactive = either reporter flat; the % is the NLuc reporter signal; also: % is scaled to controls: 0 for no effect and ±100 for the full control effect; some results filed as inactive show a strong effect at the top dose
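Reporter cells (S16 Pmp22-F2sN, 500–1,000 per well) exposed to compounds for 24 h, 37C, 5% CO2; lysis with FLuc read after 10 min, then Stop&Glo and NLuc read after 10 min.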
The depositor's hits bear a star; ? = inconclusive; · = not tested or not shown; & = joins results of further samples; [ ] = remark or other dose. Potency is read from the fitted curve at half-maximal effect.

Structure	HTT promoter inh	PMP22 txn
Nc1ccc(S(=O)(=O)NCc2ccccc2)cc1	-5.4%	·
O=C(O)CCCCCCCC(=O)O	9.7%	·
O=C(NCCN1CCOCC1)c1ccc(Cl)cc1	16.3%	·
CN1CCN(CCCN2c3ccccc3Sc3ccc(S(=O)(=O)N(C)C)cc32)CC1	-13.2%	·
NC(=O)c1ccc(-c2nc(-c3ccc4c(c3)OCO4)c(-c3ccccn3)[nH]2)cc1	-2.2%	·
O=C(CN1C(=O)C2(CCCC2)NC[C@H]1c1cc(F)cc(F)c1)Nc1ccc2c(c1)C[C@@]1(C2)C(=O)Nc2ncccc21	-1.2%	·
CN(C)c1nc(Cc2ccc(NC(=O)c3ccc4ccccc4c3)cc2)nc(Cl)c1CC(=O)O	3.9%	·
N#CNC(=NCCCCCCOc1ccc(Cl)cc1)Nc1ccncc1	?	·
CO[C@@H](C(=O)N1Cc2[nH]nc(NC(=O)c3ccc(N4CCN(C)CC4)cc3)c2C1)c1ccccc1	-14.6%	·
c1ccc(CNCCNCc2ccccc2)cc1	4.9%	·
COc1cc2nccc(Oc3ccc(NC(=O)Nc4cc(C)on4)c(Cl)c3)c2cc1OC	?	·
COC(c1ccccc1)(c1ccccc1)[C@H](Oc1nc(C)cc(C)n1)C(=O)O	4.9%&11.4%	·
CN1CCN(c2c(F)cc3c(=O)c(C(=O)O)cn4c3c2SCC4)CC1	-7.1%	·
CN1CCC(=C2c3ccccc3CC(=O)c3sccc32)CC1	7.6%&151.6%	·
Cc1cc(-c2ncc(CC(=O)Nc3ccc(-c4cnccn4)cn3)cc2C)ccn1	-20.8%	·
CCOc1ccccc1NC(=O)CSc1nc2ccccc2c2nc(CCn3cncc3C)nn12	-26.8%	?
Cc1oncc1C(=O)Nc1ccc(C(F)(F)F)cc1	2.5%&11.8%	·
CCN1CC(CCN2CCOCC2)C(c2ccccc2)(c2ccccc2)C1=O (stereo not drawn)	2.7%	·
N#C/C(=C1\SCC(c2ccccc2Cl)S1)n1ccnc1 (stereo not drawn)	-7.0%	·
CNC(=O)c1ccc(C)c(-n2c(C)cc(OCc3ccc(F)cc3F)c(Br)c2=O)c1	-7.9%	·
Cc1ccc(Cc2c(C)nc3c(-c4ccccc4)c(C)[nH]n3c2=O)cc1	?	?
Cc1cccc(C)c1NC(=O)c1cc(S(N)(=O)=O)c(Cl)cc1O	10.2%	·
CN1CCN(C(=O)C2CCCCC2)CC1	7.3%	·
O=C(NC1CCNCC1)c1[nH]ncc1NC(=O)c1c(Cl)cccc1Cl	?	·
COc1ccc(Cn2c(CCC(=O)Nc3cccc(OC)c3)nc3cccnc32)cc1	-25.1%	9.6%
C[C@@H]1C[C@H]2[C@@H]3C[C@H](F)C4=CC(=O)C(Cl)=C[C@]4(C)[C@@]3(F)[C@@H](O)C[C@]2(C)[C@@]1(O)C(=O)CO	-5.1%	·
Cc1c(C(C)C)c(=O)n(-c2ccccc2)n1C	3.2%	·
O=C(O)c1c(O)c(-c2ccccc2)nc2ccccc12	7.3%	·
C=CC(=O)Nc1cc2c(Nc3ccc(F)c(Cl)c3)ncnc2cc1OCCCN1CCOCC1	-10.9%	·
COC(=O)c1ccccc1C(=O)c1ccc(OCCN2CCCCC2)cc1	-1.4%	·
Cc1cc(NC(=O)C2CCN(S(=O)(=O)c3ccc4[nH]c(=O)oc4c3)CC2)ccc1Br	?	?
CCCCOC(=O)c1ccc(N)cc1	9.3%	·
CN(C)CCC[C@@]1(c2ccc(F)cc2)OCc2cc(C#N)ccc21	-9.7%	·
CCn1c(=O)c2c(nc(C=Cc3ccc(OC)c(OC)c3)n2C)n(CC)c1=O	-2.9%	·
Cc1ccc(Nc2c(F)cccc2Cl)c(CC(=O)O)c1	2.8%	·
Cc1cc(Cl)ccc1NC(=O)Cn1nc(C)c2c(C)n(-c3ccccc3)nc2c1=O	-18.9%	-24.6%
O=c1[nH]c(-c2ccc(C(F)(F)F)cc2)nc2c1CSCC2	-1.0%	·
Cc1nc2c([nH]1)c(=O)n(C)c(=O)n2Cc1ccco1	12.9%	·
Cc1cccc(Nc2nc(N[C@@H]3CCCC[C@H]3N)ncc2C(N)=O)c1	?	·
CN=C(NC#N)Nc1ccc(C2=NNC(=O)CC2C)cc1 (stereo not drawn)	6.2%	·
COc1ccc(S(=O)(=O)Nc2nnc(CC(C)C)s2)cc1	-3.0%	·
CN1CCN(c2cc3c(cc2F)c(=O)c(C(=O)O)cn3-c2ccc(F)cc2)CC1	3.1%	·
COc1ccc([C@@H]2CNC(=O)C2)cc1OC1CCCC1	268.4%[activator]	·
CN1CCC(Nc2ncc3ncnc(Nc4ccc(F)c(Cl)c4)c3n2)CC1	-16.1%	·
NCCO	7.9%[116 µM]	·
OCC(O)CN1CCN(c2ccccc2)CC1 (stereo not drawn)	4.0%	·
C[C@@H]1CC(=O)NN=C1c1ccc(NN=C(C#N)C#N)cc1	?	·
Cc1cnc(NC(=O)Nc2cc(Br)c(C)cc2OC[C@@H]2CNCCO2)cn1	-27.7%	·
O=C(c1ccc(F)c(F)c1Nc1ccc(I)cc1F)N1CC(O)([C@H]2CCCCN2)C1	?	·
CCOCCOC(=O)/C=C/c1ccc(OC)cc1	21.3%	·
Nc1cc(=O)[nH]c(N)n1	-2.0%	·
COc1ccc(NC(=O)C2CCCN(c3nnc(C)c4c(C)n(-c5ccccc5)nc34)C2)cc1Cl (stereo not drawn)	?	20µM*
CCCN(CCC)C(=O)C(CCC(=O)O)NC(=O)c1ccccc1 (stereo not drawn)	2.9%	·
CN(C)CCOC(=O)C(c1ccccc1)C1(O)CCCC1 (stereo not drawn)	0.5%	·
Cc1cnc(NS(=O)(=O)c2ccc(N)cc2)nc1	-7.6%	·
CS(=O)(=O)N1CCc2c(-c3cnc(N)nc3)nc(N3CCOCC3)nc21	-8.0%	·
O=C1CCc2cc(OCCCCc3nnnn3C3CCCCC3)ccc2N1	8.2%&-9.3%	·
NC(=O)c1c(OCc2c(F)cc(Br)cc2F)nsc1NC(=O)NCCCCN1CCCC1	-19.9%	·
COc1ccc2c(CNCCc3ccccc3OC)c(C(=O)O)n(Cc3ccc(F)cc3Cl)c2c1	?	?
COc1ccccc1OC(=O)Oc1ccccc1OC	1.9%	·

Three compounds from above, ordered by heavy-atom count, descending.
Structure	HTT promoter inh	PMP22 txn
COc1ccc(S(=O)(=O)Nc2nnc(CC(C)C)s2)cc1	-3.0%	·
COc1ccc([C@@H]2CNC(=O)C2)cc1OC1CCCC1	268.4%[activator]	·
CCOCCOC(=O)/C=C/c1ccc(OC)cc1	21.3%	·

Additional results
Structure	HTT promoter inh	PMP22 txn
CC(C)(C(=O)c1cccnc1)c1cccnc1	9.3%	·
COc1cc2c(cc1OC)CN(CCc1ccc(NC(=O)c3cccc4c(=O)c5cccc(OC)c5[nH]c34)cc1)CC2	-6.3%	·
Cc1ccc(C(=O)N(CCCN)[C@@H](c2oc3cc(Cl)ccc3c(=O)c2Cc2ccccc2)C(C)C)cc1	-19.4%	·
CN(CCOc1ccc(NS(C)(=O)=O)cc1)CCc1ccc(NS(C)(=O)=O)cc1	1.9%&-1.4%	·
COc1ccc(-c2ccc3c(N4CCOC[C@H]4C)nc(N4CCOC[C@H]4C)nc3n2)cc1CO	?	·
CCCc1ncc(C(=O)O)s1	4.5%	·
COC(=O)Nc1nc2ccc(S(=O)c3ccccc3)cc2[nH]1 (stereo not drawn)	-14.6%&18.0%	·
Cc1ccccc1C(C(=O)NC1CCCCC1)N(C(=O)Cn1ccnc1C)c1cccc(F)c1 (stereo not drawn)	7.5%	·
CCCc1cc(C(N)=S)ccn1	-7.7%&-3.0%	·
CC(=O)O[C@@]12CO[C@H]1C[C@H](O)[C@@]1(C)C(=O)[C@H](O)C3=C(C)[C@@H](OC(=O)C(O)[C@@H](NC(=O)OC(C)(C)C)c4ccccc4)C[C@@](O)([C@@H](OC(=O)c4ccccc4)[C@@H]21)C3(C)C (stereo partly drawn)	-13.3%	·
CCOC(=O)Nc1ccc(NCc2ccc(F)cc2)nc1N	9.0%&-1.5%	·
CCN(CC)CCOC(=O)C(c1ccccc1)c1ccccc1	-0.4%	·
Cc1nc2nc(NC(=O)c3cccc(Cl)c3)[nH]n2c(=O)c1Cc1ccccc1	-10.6%	-0.4%
COc1c(O)cc2c(c1O)[C@@H]1O[C@H](CO)[C@@H](O)[C@H](O)[C@H]1OC2=O	2.9%	·
O=C(Nc1ccc([N+](=O)[O-])cc1)Nc1ccc([N+](=O)[O-])cc1	-3.0%	·
CCN(CC)S(=O)(=O)c1ccc(C(=O)O)cc1	-4.6%	·
CN(C)C(=N)N=C(N)N	8.7%&9.3%	·
CCc1cc(-c2n[nH]c(C)c2-c2ccc3c(c2)OCCO3)c(O)cc1O	-27.6%	·
COc1cc(C(=O)NC(c2ccccc2Cl)c2cc(Cl)c3cccnc3c2O)cc(OC)c1OC (stereo not drawn)	?	4.39µM*
COC(=O)Nc1nc2ccc(C(=O)C3CC3)cc2[nH]1	-0.8%	·

Some of the entries so far, with each value named.
Molecule: O=c1[nH]c(-c2ccc(C(F)(F)F)cc2)nc2c1CSCC2
  HTT promoter inh: -1.0%
  PMP22 txn: ·

Molecule: CC(=O)O[C@@]12CO[C@H]1C[C@H](O)[C@@]1(C)C(=O)[C@H](O)C3=C(C)[C@@H](OC(=O)C(O)[C@@H](NC(=O)OC(C)(C)C)c4ccccc4)C[C@@](O)([C@@H](OC(=O)c4ccccc4)[C@@H]21)C3(C)C (stereo partly drawn)
  HTT promoter inh: -13.3%
  PMP22 txn: ·

(continued)
Structure	HTT promoter inh	PMP22 txn
c1ccc2c(Oc3nc(Nc4ccc(N5CCOCC5)cc4)c4ncn(C5CCCCC5)c4n3)cccc2c1	0.1%	·
OCCOCCN1CCN(C(c2ccccc2)c2ccc(Cl)cc2)CC1 (stereo not drawn)	-9.6%	·
O=C(c1ccc(C=Cc2n[nH]c3ccccc23)cc1)N1CCNCC1	18.1%	·
COc1ccc2cc(-c3nc(-c4ccc(S(C)=O)cc4)[nH]c3-c3ccncc3)ccc2c1 (stereo not drawn)	-7.1%	·
Cc1cc(CN2CCN(c3c(Br)cnc4nc(-c5ccc(N6CCN(C)CC6)cc5)[nH]c34)CC2)no1	-2.7%	·
CC(=O)O[C@@]12CO[C@@H]1C[C@H](O)[C@@]1(C)C(=O)[C@H](O)C3=C(C)[C@@H](OC(=O)[C@H](O)[C@@H](NC(=O)OC(C)(C)C)c4ccccc4)C[C@@](O)([C@@H](OC(=O)c4ccccc4)[C@H]21)C3(C)C	-23.2%	·
O=C(Nc1cccc(C(F)(F)F)c1)Nc1cc(S(=O)(=O)NC2CC2)ccc1-c1ccsc1	?	·
CCOc1c(N2CCOCC2)cnn(C)c1=O	2.9%	·
Cc1ccc(-n2nc(C(C)(C)C)cc2NC(=O)Nc2ccc(OCCN3CCOCC3)c3ccccc23)cc1	9.0%&-18.8%	·
C#C[C@]1(O)CC[C@@H]2[C@@H]3CCC4=CC(=O)CC[C@@H]4[C@H]3CC[C@@]21CC	-9.5%	·
CCC(Cc1c(I)cc(I)c(N)c1I)C(=O)O (stereo not drawn)	-7.9%	·
Cn1cnc2c(F)c(Nc3ccc(Br)cc3F)c(C(=O)NOCCO)cc21	1.9%	·
Cc1nc(Nc2n[nH]c3c2CN(C(=O)N[C@H](CN(C)C)c2ccccc2)C3(C)C)c2sccc2n1	-22.8%	·
NC(=O)NC(=O)Cc1ccccc1	7.3%	·
N#CC(c1ccnc(NCCc2cccnc2)n1)c1nc2ccccc2s1 (stereo not drawn)	-18.3%	·
COc1cc2ncnc(Nc3ccc(F)c(Cl)c3)c2cc1NC(=O)C=CCN1CCCCC1	-0.9%	·
CCCCCCCCCCOCC(O)CN (stereo not drawn)	-16.0%	·

Entries listed so far that contain two or more sulfur atoms, in the order listed:
Structure	HTT promoter inh	PMP22 txn
CN1CCN(CCCN2c3ccccc3Sc3ccc(S(=O)(=O)N(C)C)cc32)CC1	-13.2%	·
N#C/C(=C1\SCC(c2ccccc2Cl)S1)n1ccnc1 (stereo not drawn)	-7.0%	·
COc1ccc(S(=O)(=O)Nc2nnc(CC(C)C)s2)cc1	-3.0%	·
CN(CCOc1ccc(NS(C)(=O)=O)cc1)CCc1ccc(NS(C)(=O)=O)cc1	1.9%&-1.4%	·
O=C(Nc1cccc(C(F)(F)F)c1)Nc1cc(S(=O)(=O)NC2CC2)ccc1-c1ccsc1	?	·

Compound activity as filed in PubChem BioAssay.

These rows are one share of the data (hit frequency here may not be typical).
